MITF inh = inhibitors of MITF, primary screen, MITF inhibitor project, cell-based, luminescence; TRPM1 promoter luciferase, 24 h; inhibition, % (test concentration not listed); 37,000 tested, 0.28% active;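 active = most replicates at 85% or more, or half of them and the mean; inconclusive = half reach 85% but not the mean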;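 note: human melanocyte line stably carrying TRPM1 promoter luciferase reporter; 0% = vehicle wells and 100% = a positive control; the first replicate is given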
Hedgehog inh = Hedgehog pathway signaling inhibitors, primary screen, luminescence, Shh-LIGHT2 cells, Gli-luciferase. Shh-LIGHT2 Gli-luciferase reporter, 30 h. inhibition, % (concentration not given with the values). 22,000 tested, 2.1% active. AID 2313, 2010;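 active = replicate mean of 65% or more; inconclusive = mean lower but half the replicates past it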;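 note: pathway switched on by Shh-conditioned medium diluted 1 in 25 in low serum; 100 nL library stock added to about 40 µL; 0% = median of neutral wells and 100% = positive control level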
PD-1 reverse act = activators reversing PD-1 mediated T-cell inhibition, primary screen, luminescence, primary human CD4 T cells, PD-L1 beads. CellTiter-Glo 96 h. activation, % (concentration not given with the values). 29,000 tested, under 10 active. AID 2316, 2010;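 active = replicate mean of 50% or more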;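 note: 0% = median vehicle wells and 100% = positive control; 100 nL library stock added to about 50 µL; numbers are from one replicate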
YB-1 expression = inhibitors of YB-1 gene expression, primary screen, cell-based, fluorescence | U2OS, qRT-PCR YB-1 vs CDIP delta delta Cp, 16 h; hits give high values; zero = DMSO, each unit about twofold | 30,000 tested, 0.37% active | delta delta Cp (YB-1 minus CDIP) (test concentration not listed) | AID 434959, 2010;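 active = delta delta Cp rounded down to an integer at or above 3, about 3 SD of DMSO wells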;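 note: higher means less YB-1 transcript or more CDIP transcript relative to DMSO; stock transfer was 100 nL into about 100 µL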
* = called active by the depositor; u = inconclusive; x = no result given. A portion of the library; rates above refer to the full screens.

Every second line gives: Hedgehog inh	YB-1 expression	MITF inh	PD-1 reverse act
1: C[C@H]1CN([C@@H](C)CO)C(=O)Cc2cc(NS(=O)(=O)c3ccc(F)cc3)ccc2O[C@@H]1CN(C)S(=O)(=O)c1ccc(Cl)cc1
    35.5	-0.0376	-8.2	0.4
2: COC(=O)c1cc(OC)c(OC)cc1NC(=O)COc1cccc(C)c1C
    x	x	-13.1	-3.0
3: C[C@@H]1CCCCO[C@@H](CN(C)CC2CC2)[C@@H](C)CN([C@H](C)CO)C(=O)c2cc(NC(=O)CCC(F)(F)F)ccc2O1
    u	-0.164	-2.0	1.7
4: C[C@H](CO)N1C[C@H](C)[C@H](CN(C)S(=O)(=O)c2cccs2)Oc2ccc(NS(=O)(=O)c3ccccc3)cc2C1=O
    x	-0.379	-21.5	-5.3
5: COC(=O)c1c(C)c(=O)[nH]c2ccccc12
    22.3	-12.8	11.2	-0.9
6: COc1cc(NS(=O)(=O)c2ccc(NC(=O)c3csc(C)c3)cc2)nc(OC)n1
    x	x	9.9	3.4
7: O=C(CCc1ccc(O)cc1)c1c(O)c([C@@H]2O[C@H](CO)[C@@H](O)[C@H](O)[C@H]2O)c(O)c([C@@H]2O[C@H](CO)[C@@H](O)[C@H](O)[C@H]2O)c1O
    35.2	-0.372	x	x
8: C[C@H]1CN([C@@H](C)CO)C(=O)Cc2cc(NC(=O)Nc3cccc4ccccc34)ccc2O[C@H]1CN(C)CC1CC1
    6.1	0.182	-14.2	x
9: COc1ccc(CN(C)C[C@H]2Oc3ccc(NS(=O)(=O)c4ccc(F)cc4)cc3CC(=O)N([C@@H](C)CO)C[C@@H]2C)cc1
    7.3	0.308	-19.4	x
10: O=C(CC1NCCNC1=O)Nc1cccc(Cl)c1Cl (centres undefined)
    x	x	-25.8	1.1
11: Cc1noc(C)c1S(=O)(=O)Nc1ccc2c(c1)C(=O)N([C@H](C)CO)C[C@H](C)[C@@H](CN(C)C(=O)Nc1ccc(C(F)(F)F)cc1)OCCCC[C@@H](C)O2
    11.2	0.22	24.7	-2.5
12: CNC[C@@H]1Oc2ccc(NC(=O)NC(C)C)cc2C(=O)N([C@H](C)CO)C[C@H]1C
    x	0.209	-0.6	1.3
13: C[C@@H]1CN([C@@H](C)CO)C(=O)c2cc(NC(=O)Cn3cnnn3)ccc2O[C@H]1CN(C)S(=O)(=O)c1ccccc1
    x	0.21	-0.6	1.9
14: Cc1cc(C(=O)Nc2cccc3c2O[C@@H](CN(C)C(=O)Nc2ccc(F)cc2)[C@H](C)CN([C@H](C)CO)C3=O)n(C)n1
    -29.0	-0.16	-10.3	2.7
15: O=C(O)c1cccc(COc2ccc(CO)cc2Br)c1
    x	x	u	0.4
16: C[C@@H]1CC[C@]2(C(=O)O)CC[C@]3(C(=O)O)C(=CCC4[C@@]5(C)CC[C@H](O[C@@H]6O[C@@H](C)[C@H](O[C@@H]7O[C@H](CO)[C@@H](O)[C@H](O)[C@H]7O)[C@@H](O)[C@H]6O)C(C)(C)C5CC[C@]43C)C2[C@H]1C (some centres undefined)
    2.1	-0.402	-17.0	0.5
17: C[C@H](CO)N1C[C@H](C)[C@H](CN(C)S(C)(=O)=O)Oc2c(NS(=O)(=O)c3ccccc3)cccc2C1=O
    -128.5	-0.183	0.8	1.5
18: COc1ccc(S(=O)(=O)N(C)C[C@@H]2Oc3ccc(NC(=O)NC4CCCCC4)cc3C(=O)N([C@@H](C)CO)C[C@H]2C)cc1
    1.1	0.21	4.2	-0.1
19: Cc1noc(C)c1NC(=O)N(C)C[C@H]1Oc2ccc(NC(=O)NC(C)C)cc2C(=O)N([C@@H](C)CO)C[C@H]1C
    -18.0	0.158	-19.4	-1.7
20: C[C@H](CO)N1C[C@H](C)[C@H](CN(C)S(C)(=O)=O)Oc2ccc(NC(=O)Nc3cccc4ccccc34)cc2C1=O
    9.4	-0.157	11.9	-1.9
21: CNC[C@@H]1Oc2ccc(NC(=O)CCN3CCOCC3)cc2C(=O)N([C@H](C)CO)C[C@H]1C
    -12.5	0.148	-6.0	-0.7
22: COc1ccc(S(=O)(=O)Nc2ccc3c(c2)C(=O)N([C@H](C)CO)C[C@H](C)[C@@H](CN(C)Cc2ccc(Cl)c(Cl)c2)O3)cc1
    -4.5	-0.063	-7.1	0.3
23: C[C@@H]1CN([C@H](C)CO)C(=O)c2cc(NC(=O)NC3CCCCC3)ccc2O[C@H]1CN(C)S(=O)(=O)c1ccc(Cl)cc1
    -19.0	0.0584	2.8	1.0
24: Cc1cc(C)c2nc(NC(=O)c3ccc(C#N)cc3)sc2c1
    x	-0.657	-19.8	-0.5
25: COc1ccc(S(=O)(=O)N(C)C[C@@H]2Oc3ccc(NC(=O)Nc4ccc5c(c4)OCO5)cc3C(=O)N([C@@H](C)CO)C[C@@H]2C)cc1
    -24.7	-0.0532	-17.8	0.4
26: C[C@H]1CN([C@@H](C)CO)C(=O)c2cccc(NS(=O)(=O)c3cccs3)c2O[C@@H]1CN(C)Cc1ccc(Cl)c(Cl)c1
    10.8	0.122	-2.9	x
27: C[C@@H]1CN([C@H](C)CO)C(=O)c2cc(NC(=O)C3CC3)ccc2O[C@H]1CN(C)S(=O)(=O)c1cn(C)cn1
    x	0.191	6.0	1.1
28: Cc1ccc(-n2c(N)cc(=O)nc2SCC(=O)Nc2cccc(C(F)(F)F)c2)cc1
    x	x	-37.4	-3.5
29: Cc1ccc(S(=O)(=O)Nc2ccc3c(c2)C(=O)N([C@H](C)CO)C[C@@H](C)[C@@H](CN(C)C(=O)NC2CCCCC2)O3)cc1
    -1.7	0.708	-4.5	-1.3
30: O=C(/C=C/c1ccccc1)Nc1cc2c(ccc3ccccc32)oc1=O
    2.7	0.17	10.5	0.0
31: COC(=O)c1ccccc1NC(=O)CN(c1ccc(Br)c(C)c1)S(C)(=O)=O
    x	x	3.8	-0.6
32: Cc1noc(C)c1NC(=O)N(C)C[C@H]1Oc2ccc(NS(=O)(=O)c3c(C)noc3C)cc2CC(=O)N([C@H](C)CO)C[C@H]1C
    -22.8	-0.193	-8.3	1.3
33: C[C@@H]1CN([C@@H](C)CO)C(=O)Cc2cc(NC(=O)Nc3ccc4c(c3)OCO4)ccc2O[C@@H]1CN(C)C
    20.5	0.263	-3.6	1.6
34: O=C(Oc1ccc(N(Cc2ccco2)C2=NS(=O)(=O)c3ccccc32)cc1)c1ccco1
    x	x	4.1	-2.1
35: C[C@H](CO)N1C[C@H](C)[C@H](CN(C)C(=O)Nc2ccc(C(F)(F)F)cc2)Oc2c(cccc2N(C)C)C1=O
    -34.2	0.0341	13.8	-1.6
36: C[C@@H]1CN([C@@H](C)CO)C(=O)c2cc(NS(=O)(=O)c3cccs3)ccc2O[C@@H]1CN(C)C
    x	0.153	-12.7	-0.1
37: COc1ccc(CCNc2ncnc3sc4c(c23)CCCC4)cc1
    x	-0.526	54.6	-0.5
38: CCOC(=O)c1c(N)sc2c1CCC(Sc1ccccc1)C2=O (centres undefined)
    -15.3	0.285	-7.1	-0.4
39: COc1ccc(CN(C)C[C@H]2Oc3ccc(NC(=O)Nc4ccc(C(F)(F)F)cc4)cc3C(=O)N([C@H](C)CO)C[C@H]2C)cc1
    18.6	-0.244	-12.1	x
40: C[C@@H]1CCCCO[C@H](CN(C)C(=O)Nc2ccc3c(c2)OCO3)[C@@H](C)CN([C@H](C)CO)C(=O)c2cc(NC(=O)c3ccncc3)ccc2O1
    -12.9	-0.148	-0.5	x
41: O=c1c2ccccc2nc(SCc2ccc(F)cc2)n1-c1ccccc1
    u	-0.378	8.7	-10.1
42: O=C(CSc1nnc(-c2cccc3ccccc23)o1)Nc1cccc(F)c1
    x	x	12.2	2.2
43: COc1cc(/C=C/c2ccc(OC)c(OC)c2)c(CC=C(C)C)c(OC)c1
    2.2	-0.207	2.6	-0.1
44: CC(C)NC(=O)Nc1ccc2c(c1)C(=O)N([C@@H](C)CO)C[C@H](C)[C@@H](CN(C)S(=O)(=O)c1cccs1)O2
    -5.1	0.111	2.3	0.8
45: C[C@@H]1CN([C@H](C)CO)C(=O)c2cc(NS(=O)(=O)c3cn(C)cn3)ccc2O[C@H]1CN(C)C(=O)Nc1ccc(F)cc1
    x	0.154	-11.3	1.7
46: C[C@@H]1CN([C@@H](C)CO)C(=O)c2cccc(NS(=O)(=O)c3ccccc3)c2O[C@H]1CN(C)C(=O)Nc1ccc2c(c1)OCO2
    -9.9	0.134	-1.6	3.0
47: COC(=O)COc1c(Br)cc(C2C3=C(CCCC3=O)NC3=C2C(=O)CCC3)cc1OC
    x	x	-8.8	4.0
48: COc1cc(CC(C)C(C)Cc2ccc(O)c(OC)c2)ccc1O (centres undefined)
    -59.3	1.3	47.5	-12.1
49: O=C(COc1ccccc1[N+](=O)[O-])Nc1cc(-c2nc3ccccc3o2)ccc1Cl
    x	x	-5.0	4.9
50: C[C@H](CO)N1C[C@H](C)[C@H](CN(C)Cc2ccc(Cl)c(Cl)c2)Oc2ccc(NC(=O)NC3CCCCC3)cc2C1=O
    -5.2	0.0569	23.6	0.8
51: COc1ccc(NC(=O)Nc2ccc3c(c2)CC(=O)N([C@H](C)CO)C[C@@H](C)[C@@H](CN(C)Cc2ccc(Oc4ccccc4)cc2)O3)cc1
    u	0.0711	14.3	-4.8
52: COc1ccc(OC)c(C2C(C(=O)c3ccco3)C(=O)C(=O)N2Cc2cccnc2)c1 (centres undefined)
    x	x	3.7	1.5
53: C[C@@H]1CN([C@@H](C)CO)C(=O)c2cc(NC(=O)Cc3ccccc3)ccc2O[C@@H]1CN(C)Cc1ccc(Cl)c(Cl)c1
    x	-0.059	30.4	-2.3
54: C[C@@H]1CCCCO[C@H](CN(C)Cc2ccc(C(F)(F)F)cc2)[C@@H](C)CN([C@H](C)CO)C(=O)c2cc(NS(=O)(=O)c3cccs3)ccc2O1
    28.7	0.0847	11.4	x
55: COc1cc(C)c2c(=O)c3c(O)cc(O)cc3oc2c1
    -19.9	-0.257	12.2	1.5
56: C[C@@H]1CN([C@@H](C)CO)C(=O)c2cccc(NS(C)(=O)=O)c2O[C@H]1CN(C)S(=O)(=O)c1ccc(F)cc1
    -9.8	0.0521	-3.4	3.0
57: COc1ccc(CN(C)C[C@H]2Oc3c(NC(=O)NC4CCCCC4)cccc3C(=O)N([C@@H](C)CO)C[C@@H]2C)cc1
    -0.9	-0.443	26.7	-1.2
58: Cc1cc(-c2ccccc2)nc2c1/C(=N\O)CC(C)(C)C2
    -7.6	-0.501	-22.5	-3.4
59: O=C(CSc1nc2cc(Cl)ccc2o1)c1cccc([N+](=O)[O-])c1
    x	x	0.8	-0.9
60: COc1ccccc1NC(=O)CN(c1ccccc1OC)S(C)(=O)=O
    x	x	4.7	0.6

(more compounds)
Every second line gives: Hedgehog inh	YB-1 expression	MITF inh	PD-1 reverse act
61: COc1ccc(C2=NOC(C(=O)NCc3ccco3)C2)cc1 (centres undefined)
    x	x	-2.7	-0.7
62: COc1ccc(S(=O)(=O)N(C)C[C@H]2Oc3ccc(NS(=O)(=O)c4ccc(Cl)cc4)cc3C(=O)N([C@@H](C)CO)C[C@@H]2C)cc1
    x	-0.742	0.9	-3.1
63: C[C@@H]1CN([C@@H](C)CO)C(=O)c2cc(NC(=O)Nc3ccc4c(c3)OCO4)ccc2O[C@@H]1CN(C)C(=O)Nc1cccc2ccccc12
    -34.2	-0.129	-12.5	-3.7
64: C[C@H]1CN([C@@H](C)CO)C(=O)Cc2cc(NC(=O)NC3CCCCC3)ccc2O[C@@H]1CN(C)S(=O)(=O)c1ccc(Cl)cc1
    -18.3	0.1	-7.9	0.3

In another format: results already given
item	mol	Hedgehog inh	YB-1 expression	MITF inh	PD-1 reverse act
61	COc1ccc(C2=NOC(C(=O)NCc3ccco3)C2)cc1 (centres undefined)	x	x	-2.7	-0.7
62	COc1ccc(S(=O)(=O)N(C)C[C@H]2Oc3ccc(NS(=O)(=O)c4ccc(Cl)cc4)cc3C(=O)N([C@@H](C)CO)C[C@@H]2C)cc1	x	-0.742	0.9	-3.1
63	C[C@@H]1CN([C@@H](C)CO)C(=O)c2cc(NC(=O)Nc3ccc4c(c3)OCO4)ccc2O[C@@H]1CN(C)C(=O)Nc1cccc2ccccc12	-34.2	-0.129	-12.5	-3.7
64	C[C@H]1CN([C@@H](C)CO)C(=O)Cc2cc(NC(=O)NC3CCCCC3)ccc2O[C@@H]1CN(C)S(=O)(=O)c1ccc(Cl)cc1	-18.3	0.1	-7.9	0.3

An excerpt of these results, screen by screen.
55. COc1cc(C)c2c(=O)c3c(O)cc(O)cc3oc2c1
56. C[C@@H]1CN([C@@H](C)CO)C(=O)c2cccc(NS(C)(=O)=O)c2O[C@H]1CN(C)S(=O)(=O)c1ccc(F)cc1

entry no.	55	56
Hedgehog inh	-19.9	-9.8
YB-1 expression	-0.257	0.0521
MITF inh	12.2	-3.4
PD-1 reverse act	1.5	3.0
